High-throughput results as filed in PubChem.
H5N1 CPE: antiviral screen in MDCK cells, H5N1 avian flu | cytopathic effect, luminescence, 72 h; stronger effect = higher value; no value below 0 was filed and about half of the inactive calls have no number; reference of the scale not given here | inhibition, % at 50 µM | hit rate 0.07% among 96,000; in the data active = inhibition above about 25%
* = called active by the depositor; i = inactive. Only part of the results is shown; count on the stated rates, not on these rows.

SMILES | H5N1 CPE
O=C(NCC1CCCO1)c1ccccc1-c1nc(-c2ccccc2)no1 (configuration not stated) | i
Cc1cc(C(c2nnnn2Cc2ccccc2)N2CCOCC2)c(C)n1-c1ccc2c(c1)OCO2 (configuration not stated) | i
COc1ccccc1CNC(=O)c1cccc(N(C)C)c1 | i
CC1(C)CC(=O)CC(C)(C)N1OC(=O)c1ccncc1 | 0.4
CCOc1cc(S(=O)(=O)NC2CC(C)(C)NC(C)(C)C2)ccc1F | i
CN1CCN(C(=O)c2ccccc2-c2nc(-c3ccc(Cl)cc3)no2)CC1 | 0.7
Clc1ccc(CSc2nnc(CN3CCOCC3)n2-c2ccccc2)cc1Cl | 12.0
CCN(CC)C(=O)CSc1nc2ccccc2c(=O)n1CC1CCCCC1 | i
CCOC(=O)C1=C(N)Oc2cc(C)n(CCc3ccc(OC)c(OC)c3)c(=O)c2C1c1cccnc1 (configuration not stated) | i
Cc1c(C)c2cc(Cl)c(O)c(CN(C)C)c2oc1=O | 0.9
O=C(N1CCCCCC1)N1CCN(S(=O)(=O)N2CCCCC2)CC1 | 0.0
COC(=O)c1cccc(Cn2nnc3ccccc3c2=O)c1 | i
COC(=O)c1ccccc1NC(=O)C1CCCC1 | 0.1
CCNC(=O)O/N=C(\C)c1sc(-c2ccccc2)nc1C | i
Fc1ccc(C(c2nnnn2C2CCCC2)N2CCN(Cc3ccccc3)CC2)cc1 (configuration not stated) | 0.2
Nc1nc(SCCN2C(=O)c3ccccc3C2=O)n[nH]1 | 0.1
COc1ccc(Cl)cc1NC(=O)N1CCN(CCc2ccccc2)CC1 | 0.5
O=C(O)CCc1ccc(-c2ccc(F)cc2)n1CCC(=O)O | 0.5
O=C(Nc1cc(C(=O)N2CCCC2)ccc1N1CCCC1)c1ccccc1F | i
Oc1ccc(N=Cc2ccc(-c3cccs3)s2)cc1 | i
CC1(C)NCCN2C(=O)CSC21 (configuration not stated) | 0.1
CC(C)=CCC/C(C)=C/CCC(C)NCCN1CCNCC1 (configuration not stated) | i
O=[N+]([O-])c1ccc2n[nH]nc2c1 | 0.5
COc1ccc(NC(=O)c2ccc3c(c2)C(=O)N(Cc2cccnc2)C3=O)cc1 | i
O=c1c[n+]([O-])c2ccccc2n1OCc1ccccn1 | 1.0
Next section
SMILES | H5N1 CPE
COC(=O)c1sc2ncccc2c1OCc1ccc(Cl)cc1Cl | i
CC1=NN(C(=O)Cc2ccc([N+](=O)[O-])cc2)C(O)(c2ccccc2)C1 (configuration not stated) | i
O=C(CCCCCC(=O)N(CCO)CCO)N(CCO)CCO | i
O=C(CCS(=O)(=O)c1cc(Br)cc2c1N(C(=O)C1CC1)CC2)NCc1ccco1 | 4.4
O=C1CC(SCCc2nc3ccccc3[nH]2)C(=O)N1c1ccc(Cl)cc1 (configuration not stated) | 1.2
CCCCn1c(O)c(C=NCCCN(CC)CC)c(=O)[nH]c1=O | i
C=CCn1c(SCCOc2ccc(OC)cc2)nnc1C(CO)NC(=O)c1ccc(OC)cc1 (configuration not stated) | 0.3
COc1ccc(C2CC(=O)C3=C(C2)NC(C)=C(C#N)C3c2ccc(N(C)C)cc2)cc1 (configuration not stated) | 0.2
O=C1NNC(=O)C2C3C=CC(C4CC34)C12 (configuration not stated) | i
O=C(CN1C(=O)NC2(CCCC2)C1=O)NCCC1=CCCCC1 | 0.9
Cc1cc(C)nc(NC(=O)C(C)N2C(=O)c3ccccc3C2=O)n1 (configuration not stated) | i
Cc1nnc(SCC(=O)NCc2cccs2)[nH]c1=O | 0.1
Cc1cccc(N2C(=O)NC(=O)C3(Cc4cc(C)ccc4N(C)C3)C2=O)c1 (configuration not stated) | i
Cc1ccc(OC(=O)NC2CCS(=O)(=O)C2)cc1C (configuration not stated) | i
O=c1cc(CN2CCN(c3ccccc3O)CC2)nc2sccn12 | 0.5
Cc1cccc(-n2ncc3c(N(CCO)CCO)ncnc32)c1 | i
Cc1c(C(=O)Nc2cccc(C(F)(F)F)c2)oc2ccc(S(=O)(=O)N3CCOCC3)cc12 | 0.9
Clc1cccc(CSc2nnc(-c3c[nH]c4ccccc34)o2)c1 | 0.4
CC(C)c1cc(C(=O)Nc2cc(Cl)ccc2O)no1 | i
c1cncc(-c2nnc(-c3cccnc3)nn2)c1 | i
O=S(=O)(Nc1ccc(Oc2ncccn2)c(Cl)c1)c1ccc(Cl)cc1 | i
CC(=O)Nc1ccc(S(=O)(=O)Nc2cccc(C(=O)NC(C)(C)C)c2)cc1 | 0.7
FC(F)(F)c1nnc2sc(-c3ccncc3)nn12 | 0.9
NC1=NC2(CCC(c3ccccc3)CC2)n2c(nc3ccccc32)N1 (configuration not stated) | i
Cc1ccc(-n2nc3c(c2NC(=O)c2c(-c4ccccc4Cl)noc2C)CSC3)cc1 | i
Additional entries:
SMILES | H5N1 CPE
CC1=C(C(=O)Nc2ccc(Cl)cc2)C(c2cccs2)n2nnnc2N1 (configuration not stated) | 0.6
CC1CCC(NC(=O)CC(C)(C)Cc2nc3ccccc3c(=O)[nH]2)CC1 (configuration not stated) | 2.2
COc1ccc(Br)cc1/C(C)=N/NC1=NCCN1 | i
O=C(CSc1nnc(-c2cccs2)o1)N1CCc2ccccc21 | i
COc1ccc(CNC(=O)C2CCN(C(=O)N(C)C)CC2)c(OC)c1 | 1.7
CC1CCCCN1CCNC(=O)c1cnn2ccccc12 (configuration not stated) | 2.8
N=Cc1c(O)n(-c2cccc(Cl)c2)c(=O)[nH]c1=O | i
CSc1ccccc1NC(=O)CN(c1ccccc1)S(=O)(=O)N(C)C | i
COc1ccc(NC(=O)/C(=C\c2cc(OC)c(OC)cc2[N+](=O)[O-])NC(=O)c2ccccc2)cc1 | i
O=C(Nc1ccccc1)N1CCN(c2ccc(C(F)(F)F)cn2)CC1 | i
Cn1cc(Br)c(C(=O)NNC(=O)c2cccc(Br)c2)n1 | 11.3
Cc1[nH]c2ccccc2c1NC(=O)CN1CCN(c2cccc(C(F)(F)F)c2)CC1 | 3.1
Cc1ccc(-n2nnnc2SCC(=O)N2CCN(C(=O)c3ccco3)CC2)c(C)c1 | 1.8
CC(C)OCCCNC(=O)C1CCC(=O)N1C(C)C (configuration not stated) | i
CCCCCC(=O)N/N=C(\C)c1ccc(NC(=O)c2ccco2)cc1 | i
CCc1ccccc1NC(=O)C1CCCN(S(=O)(=O)c2c(C)noc2C)C1 (configuration not stated) | i
COC(=O)c1cccc(N2C(=O)c3ccccc3S2(=O)=O)c1 | i
O=C(O)c1ccccc1NS(=O)(=O)c1ccc2c3c(cccc13)C(=O)N2 | 1.6
O=C(c1ccco1)N1CCN(C(=O)c2sccc2-c2ccccc2)CC1 | 2.7
CCOc1ccccc1N1CCN(C(=O)C2c3ccccc3Oc3ccccc32)CC1 | 1.8
O=C(O)c1cc2nc(C3CC3)cc(C(F)(F)F)n2n1 | 0.4
C1CCC(n2nnnc2CN2CCN(C3CCCC3)CC2)CC1 | 0.9
Cn1c(Oc2ccccc2NCc2cccc(Br)c2)cc(=O)n(C)c1=O | 0.8
CCn1c(=O)n(CC)c2cc(S(N)(=O)=O)ccc21 | 1.3
CCOC(=O)C1=C(C)N=C2SCCC(=O)N2[C@@H]1/C=C/c1ccccc1 | i
The results go on:
SMILES | H5N1 CPE
Cc1cccc(C)c1NC(=S)N/N=C/c1ccc(OCCC(C)C)cc1 | 0.1
O=C(CSc1nnc(-c2cc3ccccc3cc2O)n1Cc1ccco1)c1ccc(F)cc1 | i
CC(C)(C)C(=O)[C@@H]1[C@@H]2C(=O)N(Cc3ccccc3)C(=O)[C@@H]2[C@H]2c3ccccc3C=CN12 | 0.9
CC1CCN(C(=O)COC(=O)c2n[nH]c3ccccc23)CC1 | 0.1
CCc1ccc(N2C(=O)CC(N3CCC(C(=O)OC)CC3)C2=O)cc1 (configuration not stated) | i
COc1ccc(Cc2nnc(NC(=O)CSc3ccccc3)s2)cc1 | i
CCOC(=O)N1CCN(C(=O)c2cc3sccc3n2C)CC1 | 0.4
COC(=O)C(CC(C)C)NC(=O)c1cc(OC)c(OC)c(OC)c1 (configuration not stated) | i
Cc1ccc2c(C(=O)CN3CCN(C4CCCCC4)CC3)c(C)[nH]c2c1 | i
Cc1ccc(S(=O)(=O)/N=C(\CSC(N)=O)Nc2ccccc2)cc1 | 1.0
Cc1ccc(C)c(NC(=S)N2CCN(c3cccc(C(F)(F)F)c3)CC2)c1 | i
COC(=O)COc1ccc(S(=O)(=O)Nc2ccc3c(c2)OCCO3)cc1Cl | 0.4
Cc1sc2ncn(CC(=O)N(CC(=O)NC3CCCC3)Cc3cccs3)c(=O)c2c1C | 0.7
CN(CCC#N)c1ncnc2scc(-c3ccccc3)c12 | 18.8
O=C(CCCN1C(=O)c2cccc3cccc(c23)C1=O)N1CCc2ccccc2C1 | 0.8
CC1(C)NC(=O)N(CC(O)COC2CCCCC2)C1=O (configuration not stated) | i
Cc1cccc2nc(CNc3ccc(F)cc3)cn12 | 0.1
COc1cccc(NC(=O)C2CCCN(S(=O)(=O)c3ccc(-n4cnnn4)cc3)C2)c1 (configuration not stated) | i
O=C(COc1ncnc2ccccc12)NC(=O)NCc1ccccc1 | i
c1ccc(-c2nc(-n3ccnc3)nc(-n3ccnc3)n2)cc1 | 5.4
COc1cccc(-c2nn(C)c3sc(C(=O)N4CCN(c5ccccn5)CC4)cc23)c1 | i
CC1(C)Cc2c(ccc3ccccc23)/C(=C/C#N)N1 | 0.7
CCOC(=O)c1nn(-c2ccc(C)c(C)c2)cc1O | i
CC(C)=C1C2CCC1C(C(=O)NCc1ccccc1)C2C(=O)O (configuration not stated) | 1.3
COc1ccc(-c2nc(C#N)c(NCCCN3CCOCC3)o2)cc1 | 0.5
Next section
SMILES | H5N1 CPE
COCCn1c(-c2ccc(Cl)cc2)cnc1SCC(=O)NCc1cccs1 | 0.3
C=CCNC(=O)CCCC(=O)NCC=C | i
COc1ccc(/C(O)=C2/C(=O)C(=O)N(CC3CCCO3)C2c2ccc(OC)c(OC)c2)cc1 (configuration not stated) | i
Cc1c(NC(=O)CSc2nnnn2-c2ccc(O)cc2)c(=O)n(-c2ccccc2)n1C | 1.0
COc1ccc(N2C(=O)CC(Sc3ncccc3C(=O)O)C2=O)cc1 (configuration not stated) | i
O=C(N/N=C/c1ccc(-c2cccc(C(F)(F)F)c2)o1)c1ccccc1Br | 1.0
Cc1cc(Cl)ccc1Oc1nccc(N(C)C)c1C#N | 0.1
CCCC(=O)Nc1nc2ccc3nc(C)sc3c2s1 | 1.6
CCC(CC)NC(=O)c1ccccc1Oc1ccccc1 | 2.9
COc1ccc(OC)c(NC(=O)CNC(=O)Cn2cnc3ccccc3c2=O)c1 | i
C1=CC2c3ccccc3NC(c3ccncc3)C2C1 (configuration not stated) | 0.8
CCC(C)n1c(SCC(=O)NCc2ccco2)nnc1-c1cccc(S(=O)(=O)N2CCOCC2)c1 (configuration not stated) | 1.6
CCOc1cccc(SCc2noc(C(=O)NCCOC)c2C(=O)O)c1 | i
CCCCn1c(NC(=O)c2ccccc2)nc2ccccc21 | 17.4
COc1ccnc(Oc2ccc(F)cc2)c1C(=O)N/C=N/OCc1c(Cl)cccc1Cl | i
O=C1CSC(=S)N1Cc1cccnc1 | 28.6*
C/C(=N\NC(=O)c1c(Cl)cnn1C)c1cccc(NC(=O)COc2ccccc2)c1 | i
O=C(CN1C(=O)CCC1=O)Nc1ccc2c3c(cccc13)CC2 | i
COC(=O)NCC(c1cccnc1)N1CCN(c2ccccc2)CC1 (configuration not stated) | 1.1
Cc1ccc(NS(=O)(=O)c2cc(C(=O)N3CCOCC3)ccc2C)cc1 | i
COc1cccc2sc(Nc3nc(C)c(C(C)=O)s3)nc12 | 0.6
Cc1nc2ccccc2c2oc(C(=O)Nc3ccc4c(c3)OCCO4)cc12 | i
CCOC(=O)c1ccccc1N/C=C1\CCCCC1=O | i
CC(=O)C1=C(O)C(=O)N(CCN(C)C)C1c1ccc(Cl)cc1 (configuration not stated) | i
CC1CCCN(S(=O)(=O)c2ccc3c(c2)CCN3C(=O)C2CCC2)C1 (configuration not stated) | 0.9
CC(C)C(=O)N1CCN(C2=NS(=O)(=O)c3ccccc32)CC1 | 0.8
Cc1cc(C)n(S(=O)(=O)c2ccc(C)c(C)c2C)n1 | i
Cc1ccc(Sc2cc(N3CCOCC3)nc(-c3ccccc3)n2)cc1 | i
